LASV entry inh: inhibitors of Lassa virus binding or cell entry. 300,000 tested, 1.2% active. Lassa virus pseudotype entry inhibition, cell reporter; control for the full effect not named in the record. Potency, µM (highest dose often 37.9 µM), inactives show at the highest dose activity change, negative = inhibition, usual class: inhibitors; active means well fitted inhibition curve with a large enough effect; inconclusive means small, poorly fitted or top-dose-only effect, or effect the other way; inactive means flat fitted curve, though single readings scatter; tested in HEK293 cells; further: on the % scale 0 is the no-effect control and ±100 the full control effect; nearly all actives have a fitted effect of over 50% in size; luciferase read-out
Cruzain inh noDet: blocks cruzain activity in detergent-free assay; Potency, µM, without a hit: max response, negative = inhibition, actives largely listed as inhibitors; AID 1476; purified cruzain, Z-FR-AMC fluorescence, no detergent; 200,000 tested, 2.3% active; active means well fitted curve in the direction sought with a large enough effect; inconclusive means small, poorly fitted or top-dose-only effect, or another doubt; inactive means no such curve, though single readings can be large; an effect the other way counts as inactive or inconclusive;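 further: plate controls were enzyme without inhibitor for no effect and buffer without enzyme for full effect; nearly all actives have a fitted effect of over 40% in size; top concentration of the series not given in the record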
Target sequence (P25779 123-467 limits assumed): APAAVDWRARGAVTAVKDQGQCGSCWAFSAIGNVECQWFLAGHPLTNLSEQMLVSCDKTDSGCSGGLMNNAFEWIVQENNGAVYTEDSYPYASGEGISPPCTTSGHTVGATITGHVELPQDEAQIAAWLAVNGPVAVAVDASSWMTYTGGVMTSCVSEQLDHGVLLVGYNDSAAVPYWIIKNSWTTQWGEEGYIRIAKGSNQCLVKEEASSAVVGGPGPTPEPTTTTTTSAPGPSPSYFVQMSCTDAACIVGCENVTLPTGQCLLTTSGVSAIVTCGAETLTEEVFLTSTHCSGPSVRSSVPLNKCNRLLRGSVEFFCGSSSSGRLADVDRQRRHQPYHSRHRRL
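Purified cruzain at 1.5 nM, pre-incubated 15 min with compound at room temperature in 100 mM sodium acetate pH 5.5, 5 mM DTT, 0.00005% Triton X-100. Reaction started with 2 uM Z-FR-AMC; AMC fluorescence increase over 60 s gives rate.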
MARV entry inh: inhibitors of Marburg virus binding or cell entry; Marburg virus pseudotyped entry inhibition, cell reporter; control for the full effect not named in the record; about a third of the inactives were read at about 46 µM; 300,000 tested, 1.8% active; AID 540276; Potency, µM (series often up to 37.8 µM), without a hit: at the top dose activity change, negative = inhibition, hits mostly inhibitors; active = well fitted inhibition curve with a large enough effect; inconclusive = small, poorly fitted or top-dose-only effect, or effect the other way; inactive = flat fitted curve, though single readings scatter; tested in HEK293 cells; about a fifth of its hits are not listed in these tables; further: on the % scale 0 is the no-effect control and ±100 the full control effect; luciferase read-out
2A StopGo: lowers the luciferase signal of an FMDV 2A StopGo reporter; Potency, µM (titrated, usually from 57.9 µM), without a hit: at the top dose signal change, negative = less light; AID 1159524; 410,000 tested, 1.2% active; human cells with a luciferase reporter of 2A StopGo recoding; control for the full effect not named in the record; active = well fitted falling curve with a large enough effect; inconclusive = small, poorly fitted or top-dose-only effect; inactive = no such curve, though single readings can be large or run the other way; tested in HEK293T cells; further: on the % scale 0 is the no-effect control and ±100 the full control effect; nearly all actives have a fitted effect of over 45% in size; luciferase light after 4 h
SARS PLP yeast: inhibitors of SARS-CoV papain-like protease in yeast. S. cerevisiae expressing SARS-CoV PLpro, growth rescue; control for the full effect not named in the record. Potency, µM (series often up to 32.9 µM), for inactives: top-dose activity, positive = growth rescue. 330,000 tested, 0.19% active; further: 0% is about no effect; nearly all actives have a fitted effect of over 55% in size; growth read by luminescence after 48 h
NS1 function inh: inhibitors of influenza NS1 protein function | 270,000 tested, 0.4% active | Potency, µM (titrated, usually from 46.1 µM), for the others: at the top dose activity, positive = more growth | AID 2326 | S. cerevisiae slowed by influenza A NS1, growth recovery by OD600; further: actives are rising curves; nearly all actives have a fitted effect of over 50% in size
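S. cerevisiae expressing influenza A NS1, grown in glucose, washed, then diluted 1:100 into pH 6.0 -URA galactose medium with 23 nl compound. Growth recovery read as OD600; NS1-free strain serves as control.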
RE007 growth inh: less growth of the S. pombe RE007 Vpr strain; S. pombe RE007 Vpr strain, BacTiter-Glo ATP luminescence, 24 h; control for the full effect not named in the record; Potency, µM (doses to about 92.2 µM), without a hit: top-dose activity change, negative = less growth; 360,000 tested, 0.21% active; AID 651644; active = well fitted falling curve with a large enough effect; inconclusive = small, poorly fitted or top-dose-only effect; inactive = no such curve, though single readings can be large or run the other way;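 further: on the % scale 0 is the no-effect control and ±100 the full control effect; nearly all actives have a fitted effect of over 50% in size; the assay follows cell death caused by Vpr and the record does not say whether a fall means rescue or toxicity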
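Fission yeast RE007 carrying one integrated HIV-1 vpr copy, seeded at OD 0.01 in PMG+AL medium with 23 nL pinned compound. Grown 24 h at 30 degrees; viability read by BacTiter-Glo luminescence after 5 min.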
Cruzain Triton: cruzain (T. cruzi) inhibition with detergent; Potency, µM, for inactives: max response, negative = inhibition, hits mostly inhibitors; purified cruzain, Z-FR-AMC fluorescence, 0.01% Triton; 200,000 tested, 0.43% active; active means well fitted curve in the direction sought with a large enough effect; inconclusive means small, poorly fitted or top-dose-only effect, or another doubt; inactive means no such curve, though single readings can be large; an effect the other way counts as inactive or inconclusive;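 further: plate controls were neutral wells for no effect and buffer without enzyme for full effect; nearly all actives have a fitted effect of over 40% in size; top concentration of the series not given in the record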
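15 min RT preincubation of 1.5 nM cruzain with compound, then 2 uM Z-FR-AMC added; kinetic AMC fluorescence, 60 s delta. Triton X-100 0.01%, pH 5.5.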
Active calls of the source: *; ? = inconclusive; / = no result given; [ ] = remark or other dose. Unless noted, the call rests on the fitted dose curve; in most records, active means well fitted rising curve with a large enough effect; inconclusive means small, poorly fitted or top-dose-only effect; inactive means no such curve, though single readings can be large or run the other way. Potency means the concentration at half of the fitted maximal effect. Outcome played no part in choosing rows. Share with any hit: about 4.5%.

SMILES	LASV entry inh	Cruzain inh noDet	MARV entry inh	2A StopGo	SARS PLP yeast	NS1 function inh	RE007 growth inh	Cruzain Triton
O=C(O)C12CC3CC(C1)CC(n1ncc(NCc4ccccc4)c(Cl)c1=O)(C3)C2	7%[46.1 µM]	/	8%[46.1 µM]	6%	-2%	/	-7%	/
O=C(Nc1ccc(Cl)cc1)/C(=C1\CCCN1)[N+](=O)[O-]	18%	/	15%	3%	0%	-2%	-4%	/
CCOC(=O)C1=C(CN2CCN(c3cc(C)ccc3C)CC2)NC(=O)NC1c1ccccc1 (configuration not stated)	?	10%	?	-26%	/	/	/	-4.3%
CCc1nnc(NC(=O)CCC(=O)NCc2ccccc2OC)s1	-19%	-12%	27%	19%	-2%	7%	1%	4.4%
C[C@@H](N)C(=O)NC[C@H]1CC[C@H](C(=O)N[C@@H](Cc2ccccc2)C(=O)O)CC1	8%	/	-2%[46.1 µM]	19%	1%	-6%	1%	/
Cc1ccc(N2C(=O)SC(N(CC(=O)O)c3cccc(C)c3)C2=O)cc1 (configuration not stated)	10%	0%	5%	58%[activator]	1%	3%	14%	5.1%
Cc1ccccc1C(=O)NNC(=O)CSc1nnc(C)n1-c1ccccc1	12%	-1%	1%	-4%	?	22%	36%	-3.8%
Cn1c(/C(C#N)=C/c2ccc(C(F)(F)F)cc2)nc2ccccc21	10%[46.1 µM]	2%	/	-20%	/	/	/	-1.4%
CCCC(=O)Nc1cnc(NC(=O)c2cccc(F)c2)cc1C	?	5%	?	-33%	-13%	-1%	-22%	4.0%
Cn1c(=O)c2[nH]c(N/N=C(/C#N)C(N)=O)nc2n(C)c1=O	0%	/	0%[46.1 µM]	-15%	-2%	-2%	-6%	/
Cc1cc(C(=O)CSc2nc3ccc(Cl)cc3[nH]2)c(C)n1CC1CCCO1 (configuration not stated)	?	-19%	13µM*	14µM*	-6%	21%	4%	-0.7%
N#CC1(NC(=O)COC(=O)Cc2n[nH]c(=O)c3ccccc23)CCCCC1	13%	/	3%[46.1 µM]	-9%	-5%	/	8%	/
CCn1cc2nc(SCc3cccc(Cl)c3)n(Cc3ccc(C)cc3)c(=O)c2n1	15%[46.1 µM]	?	-18%[46.1 µM]	?	/	/	/	-5.0%
COCCn1nnnc1C(c1ccccc1OC)N1CCc2ccccc2C1 (configuration not stated)	9%	/	-22%	/	/	-16%	1%	/
COc1cc2c(cc1NC(=O)C(C)Oc1ccc(Cl)cc1Cl)oc1ccccc12 (configuration not stated)	11%[46.1 µM]	?	-2%[46.1 µM]	-24%	/	/	/	0.3%
CCC(=O)/C(=C(/O)c1ccccc1)c1nc2ccccc2[nH]1	-7%[46.1 µM]	/	?	39%[activator]	0%	/	8%	/
COC(=O)C1=C(C)NC(C)=C(C(=O)OC)C1c1ccc(NC(C)=O)cc1	1%	-9%	16%	/	2%	2%	4%	1.9%
Cc1c(Cl)cccc1NC(=S)N1CCN(Cc2ccc3c(c2)OCO3)CC1	?	-7%	-7%[46.1 µM]	-3%	-16%	0%	-9%	-0.8%
CC1(C)CC(=O)c2sc(NC(=O)c3cccs3)nc2C1	-17%	-5%	?	-64%	-23%	-22%[9.22 µM]	?	-6.4%
Cc1ccc(C)c(Cn2cnc3c(nnn3-c3ccc(F)cc3)c2=O)c1	?	7%	-28%	9%	2%	3%	-1%	-1.3%
COc1ccc(S(=O)(=O)N(C)C)cc1NC(=O)CSc1nc(N)cc(N)n1	9%	/	-10%	3%	-1%	3%	1%	/
CC(OC(=O)c1ccc2c(c1)OCCO2)C(=O)NC1CCCCC1C (configuration not stated)	-5%	/	16%[46.1 µM]	-18%	3%	/	-8%	/
C=CCN(c1ccccc1)S(=O)(=O)c1cccc(C(=O)NCC(c2cccs2)N2CCOCC2)c1 (configuration not stated)	?	/	?	-26%	2%	/	-25%	/
CC(=O)N1CCN(c2ccccc2NC(=O)c2cc3ccccc3o2)CC1	/	/	/	-23%	-13%	-80%	-3%	/
CC(=O)Nc1ccccc1NC(=O)COc1cccc2ccccc12	/	/	/	-10%	-4%	2%	-6%	/
COc1cc(OC)cc(-c2nnc(NC(=O)CCS(=O)(=O)c3ccc(F)cc3)o2)c1	-18%	/	?	-28%	-6%	/	0%	/
COc1cc2cc(C(=O)N3CCOCC3)cc(-c3ccc(C)cc3)c2cc1OC	/	/	/	?	-1%	2%	10%	/
O=C(OCC(=O)N1CCc2ccccc21)c1cccc(S(=O)(=O)N2CCCc3ccccc32)c1	5%	?	3%	0%	7%	4%	5%	2.9%
COc1ccc(CN(CC2CCC(C(=O)O)CC2)C(=S)Nc2ccccc2OC)cc1 (configuration not stated)	5%[46.1 µM]	/	-3%[46.1 µM]	-9%	-2%	/	1%	/
CCOc1cc(C(=S)N2CCOCC2)ccc1OC(=O)c1cc(OC)c(OC)c(OC)c1	/	/	/	-19%	-7%	13%	-7%	/
C(=N\n1cnnc1)/c1cn(Cc2ccccc2)c2ccccc12	?	7%	-16%	-18%	3%	17%	-3%	-7.9%
Cc1ccc(-c2nnc(Nc3cccc(O)c3)c3ccccc23)cc1S(=O)(=O)N1CCN(C)CC1	-10%[46.1 µM]	-6%	-12%[46.1 µM]	-18%	/	/	/	-3.4%
COc1ccc(-c2c(C)oc3c(CN4CCOCC4)c(O)ccc3c2=O)cc1	/	/	/	5%	-1%	0%	6%	/
CC1CN(S(=O)(=O)Cc2ccccc2)CC(C)O1 (configuration not stated)	9%	-7%	23%	-17%	-5%	?	-2%	1.0%
Cc1cccc(N2CCN(C(=O)c3ccc(CS(=O)Cc4cccc(Cl)c4)o3)CC2)c1C (configuration not stated)	/	/	/	?	-5%	11%	-9%	/
CCc1c(CN2CCN(c3ccc(F)cc3)CC2)csc1C	28%[46.1 µM]	2%	/	-26%	/	/	/	-0.7%
Cc1oc(-c2ccccc2F)nc1CS(=O)CC(=O)NCc1ccccn1 (configuration not stated)	/	/	/	-12%	6%	17%	6%	/
COc1cc2c(cc1OC)CN(C(=O)c1cccc(S(=O)(=O)N3CCc4ccccc43)c1)CC2	4µM*	/	4µM*	-34%	-5%	/	3%	/
Cc1ccc(-c2cc(C(=O)NC3CCCC3)no2)cc1	-12%[46.1 µM]	/	10µM*	17%	-1%	-31%	25%	/
CCCC(c1nnnn1CC1CCCO1)N1CCN(c2ccccc2)CC1 (configuration not stated)	0%[46.1 µM]	/	1%[46.1 µM]	-2%	1%	3%	-3%	/
O=C(CCC(=O)N(CC(=O)NC1CCCC1)C1CCCC1)Nc1ccccn1	10%	2%	-1%	?	-2%	-2%	14%	8.0%
Cc1ccccc1-n1nc2c(c1NC(=O)c1ccc(Br)o1)CSC2	2%	-19%	?	-25%	-1%	-37%	1%	-4.4%
CCOC(=O)c1c(C)[nH]c(C(=O)OCC(=O)Nc2sccc2C(N)=O)c1C	?	/	2.2µM*	16µM*	0%	/	5%	/
COc1ccc(NC(=O)CC2C(=O)N(c3ccc(F)cc3)C(=S)N2NC(=O)c2ccccc2)cc1 (configuration not stated)	0%	4%	32%	-3%	13%	16%	-3%	-2.3%
COc1ccc2[nH]c(=S)cc(C)c2c1	/	/	/	3%	7%	-1%	18%	/
COc1ccc(/C=C\c2onc(C)c2S(=O)(=O)N2CCC(C(=O)Nc3ccc(Cl)cc3)CC2)cc1	-13%[46.1 µM]	-30%	?	?	/	/	/	-3.4%
Cc1ccccc1NC(=O)CSc1nnc(-c2cccc(Cl)c2)o1	2%[46.1 µM]	-3%	?	-10%	/	/	/	0.2%
COc1cccc(C(=O)Nc2ccccc2N2CCCC2)c1	8%	-13%	2%	3%	-3%	?	-13%	7.3%
Cc1cc(N)ccc1S(C)(=O)=O	7%	3%	24%[46.1 µM]	-19%	12%	15%	-1%	1.6%
COC(=O)C(Cc1ccccc1)N1CCS(=O)(=O)CC1 (configuration not stated)	8%	/	17%[46.1 µM]	-4%	0%	5%	-1%	/
CCN(CC)c1ccc(/C=C(/C#N)C(=O)NCc2ccccc2)o1	-17%	-4%	21%	73%[activator]	14%	23%	-1%	-16%
CCn1c(/C=C/c2ccccc2)nc2ccccc21	?	-30%	?	0%	-12%	-32%	?	-19%
Cc1ccc(-n2c(SCC(=O)N3CCCc4ccccc43)nc3c([nH]c4ccccc43)c2=O)cc1	-7%[46.1 µM]	-4%	/	-8%	/	/	/	-1.9%
CCC(C)NC(=O)N1c2ccccc2Sc2ccccc21 (configuration not stated)	/	/	/	-26%	-2%	-9%	-11%	/
O=C1CC2(CCCC2)CC(=O)N1c1ccccc1	25%[46.1 µM]	/	2%[46.1 µM]	-9%	1%	/	7%	/
O=C(NC1CCS(=O)(=O)C1)c1cccc(S(=O)(=O)N2CCCC2)c1 (configuration not stated)	16%[46.1 µM]	/	7%[46.1 µM]	7%	0%	0%	-1%	/
O=C1NC(=O)C(c2ccccc2)(c2ccccn2)N1 (configuration not stated)	3%[46.1 µM]	/	-15%[46.1 µM]	-3%	/	/	6%	/
COc1ccc(CCNC(=O)c2ccco2)cc1OC	/	/	11%[46.1 µM]	10%	0%	0%	4%	/
CC1CN(Cc2ccccc2)c2nc3c(c(=O)n(CC(N)=O)c(=O)n3C)n2C1 (configuration not stated)	/	/	/	-17%	-17%	5%	33%	/
COc1cc(-c2nnc(SCC(=O)N(C)C3CCS(=O)(=O)C3)o2)cc(OC)c1OC (configuration not stated)	-21%	/	9%[46.1 µM]	7%	-1%	/	-8%	/
CCOC(=O)C1CCN(c2nc3ccccc3nc2C(C#N)C(=O)OC(C)C)CC1 (configuration not stated)	-6%	2%	-13%[46.1 µM]	-13%	-2%	-5%	1%	-5.5%

Assay outcomes as filed in PubChem BioAssay.
